Screens from PubChem.
Resorufin autofl: resorufin region autofluorescence | Compound fluorescence, resorufin region 547/598 nm, buffer; hits give high values | max dye-equivalent concentration, M | 0.04% of 59,000 active | AID 588; active = above 10 nM dye equivalent; inconclusive = 1 to 10 nM; inactive = 1 nM or less; a few of its hits are not listed in these tables; also: highest value over a series up to 38 µM
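Tris 100 mM pH 8.0; compound added, 15 min RT; CCD imager read, ex 547 nm/em 598 nm; signal normalized to resorufin standard curve (six concentrations per plate) as dye-equivalent concentration.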
TSHR ag: activates the human thyroid stimulating hormone receptor; HEK293-CNG-TSHR cells (CNG channel as cAMP sensor), membrane potential dye, cAMP; AID 926; Potency, µM (top dose mostly 57.1 µM), inactives show at the highest dose activation, most hits filed as activators; 0.48% of 73,000 active; P16473; active = well fitted activation curve of enough size with the parental cells flat; inconclusive = any curve in the parental cells; inactive = parental cells flat and receptor cells flat or falling; also: potency is read from the fitted curve at half-maximal effect; % of control where 0% means no effect; weak receptor curves with flat parental cells got no call and are not listed
Target sequence (P16473 whole entry, looked up): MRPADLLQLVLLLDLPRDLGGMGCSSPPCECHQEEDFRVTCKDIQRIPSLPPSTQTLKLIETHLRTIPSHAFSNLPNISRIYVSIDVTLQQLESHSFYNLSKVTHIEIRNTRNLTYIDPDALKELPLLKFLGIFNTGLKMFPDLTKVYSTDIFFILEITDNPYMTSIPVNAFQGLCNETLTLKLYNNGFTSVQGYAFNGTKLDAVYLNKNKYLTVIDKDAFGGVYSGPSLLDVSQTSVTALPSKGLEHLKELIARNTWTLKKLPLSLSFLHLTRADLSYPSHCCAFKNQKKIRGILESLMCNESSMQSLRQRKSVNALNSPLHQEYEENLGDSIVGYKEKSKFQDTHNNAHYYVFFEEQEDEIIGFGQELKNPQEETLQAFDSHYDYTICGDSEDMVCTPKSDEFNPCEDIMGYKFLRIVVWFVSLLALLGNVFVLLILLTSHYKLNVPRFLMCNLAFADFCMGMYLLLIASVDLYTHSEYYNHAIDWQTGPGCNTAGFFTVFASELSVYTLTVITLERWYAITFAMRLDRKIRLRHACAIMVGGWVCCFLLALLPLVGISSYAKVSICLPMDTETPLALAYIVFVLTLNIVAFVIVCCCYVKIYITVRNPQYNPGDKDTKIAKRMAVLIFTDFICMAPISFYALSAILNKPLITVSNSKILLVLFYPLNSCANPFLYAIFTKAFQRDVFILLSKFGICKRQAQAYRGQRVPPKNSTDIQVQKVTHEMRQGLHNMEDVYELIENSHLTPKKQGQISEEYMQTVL
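HEK 293 cells stably expressing TSHR and a modified CNG channel, with CNG-only parental cells as counterscreen, were preloaded 60 min at room temperature with membrane potential dye containing 100 uM RO 20-1724. Compound exposure was 30 min, and depolarization was read as fluorescence at 590 nm.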
AID923: qHTS Assay for Allosteric/Competitive Inhibitors of Caspase-1: Spectroscopic Profiling in AFC Spectral Region; compound fluorescence, AFC spectral region (405/520 nm); almost no hit is shown here; Potency, µM (doses to about 57.5 µM), without a hit: at the highest dose fluorescence increase, actives largely listed as activators; 1.1% of 75,000 active; AID 923, 2007; active = well fitted activation curve with a large enough effect; inconclusive = small, poorly fitted or top-dose-only effect;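 also: potency is read from the fitted curve at half-maximal effect; 0% is about no effect; scaled to a free AFC standard on each plate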
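Baseline compound fluorescence (AFC region, 405 nm ex/520 nm em) taken from the intercept of kinetic reads with 50 nM caspase-1 and 5 uM Ac-WEHD-AFC; normalized to an on-plate AFC standard curve; compounds titrated up to 57 uM.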
A488 autofl: A488 region autofluorescence. compound autofluorescence, A488 spectral region, dye equivalency; hits give high values. max dye equivalency, M. 0.1% of 59,000 active; active = above 10 nM dye equivalent; inconclusive = 1 to 10 nM; inactive = 1 nM or less; about half of its hits are not listed in these tables;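 also: highest value over a series up to 38 µM; compound alone in buffer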
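Compound autofluorescence was read in 100 mM Tris pH 8.0 after 15 min at room temperature, ex 480 nm/em 540 nm. Intensities were converted to A488 dye-equivalent concentration using an on-plate six-point A488 standard curve.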
A647 autofl: A647 region autofluorescence; 59,000 tested, under 10 active; max dye-equivalent concentration, M; Compound fluorescence, A647 channel (570/671 nm), Tris buffer; active means above 1 µM dye equivalent; inconclusive means 0.1 to 1 µM; inactive means 0.1 µM or less;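 also: values scaled relative to a standard on each plate; highest value over a series up to 38 µM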
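Spectral profiling of library compounds in pH 8.0 Tris: 15 min room-temperature incubation, single ex/em pair (570/671 nm), response normalized to Alexa 647 equivalents.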
* marks the source's active call; other numbers are inactive results; i = inactive; ? = inconclusive; . = no result given; [ ] = remark or other dose. Only part of the results is shown (hit frequency here may not be typical).

SMILES	Resorufin autofl	TSHR ag	AID923	A488 autofl	A647 autofl
COC(=O)c1ccc(S(=O)(=O)NCCSc2nnc3c4ccccc4n(C)c3n2)cc1	i	25.0%	-1.1%	i	1e-09
COc1ccccc1-c1noc(-c2ccccc2C(=O)Nc2ccccc2)n1	i	?	0.5%	i	6.3e-09
C=C(C)c1cccc(C(C)(C)NC(=O)NCCCN2CCCC2=O)c1	i	10.0%	0.1%	i	1e-09
CCCC(c1nnnn1Cc1ccco1)N1CCN(C(=O)c2ccco2)CC1 (configuration not stated)	i	6.9%	-0.1%	i	1.33e-08
CC(C)=CCCC(C)CCO (configuration not stated)	.	1.9%	-4.4%	.	.
Cc1cc(N2CCOCC2)nc2ccc(NC(=O)CCC(=O)N3CCCCC3)cc12	i	3.1%	-0.8%	i	1e-09
O=C(O)c1c(-c2c3ccc(=O)cc-3oc3cc(O)ccc23)cc2ccccc2c1-c1ccccc1	i	-2.9%[11.4 µM]	-1.5%[11.5 µM]	i	9.6e-09
NC(=O)CSc1nnc(-c2cnccn2)n1-c1ccccc1	i	-0.8%	-0.1%	i	3.52e-08
Cc1ccc(C)n1-c1ccc(-n2cnnn2)cc1	.	-4.7%	2.2%	.	.
CC1CN(C2CCN(C(=O)c3ccccc3Cl)CC2)CC(C)O1 (configuration not stated)	i	.	.	i	4.2e-09
CC(C)Sc1ncnc2c1oc1ccccc12	i	5.9%	1.4%	i	1e-09
C=CCNC(=O)CCCOc1cccc(C)c1	.	5.9%[11.4 µM]	-0.7%	.	.
Cc1cc(C)n(C(=O)CN2C(=O)c3ccccc3C2=O)n1	.	-4.6%	-0.6%	.	.
Cn1c(=S)[nH]c2cccnc21	i	0.5%	-2.0%	i	4.9e-09
CCCCCCNC(=O)c1c(O)c2ccccc2[nH]c1=O	i	3.2%	0.4%	i	2.91e-08
O=c1cc(CSc2nc3cc(Cl)ccc3o2)nc2sccn12	i	6.7%	-0.4%	i	3.02e-08
O=C(NCCn1ccc2ccccc21)C1CCCCC1	.	?	4.0%	.	.
CC12CS(=O)(=O)CC1SC(=S)N2c1ccccn1 (configuration not stated)	i	0.8%	-0.7%	i	1.82e-08
O=C(Nc1ccccc1)c1cc([N+](=O)[O-])ccc1Cl	i	?	-1.5%	i	5.11e-08
Cc1cc(/C=N/n2cnnc2)c(C)n1-c1cc(Cl)ccc1Cl	.	?	1.6%	.	.
Cc1ccccc1-n1c(SCc2c(C)noc2C)nnc1-c1ccncc1	i	2.7%	2.8%	i	3.7e-09
CN1CCc2c(sc3c2C(=O)NC(c2ccc4c(c2)OCO4)N3)C1 (configuration not stated)	i	?	-0.1%	i	2.33e-08
O=C(O)CC1C(=O)NCCN1Cc1ccc(F)c(F)c1 (configuration not stated)	.	?	2.2%	.	.
CC/C=C\CC[C@H](OC(=O)c1ccc(Br)cc1)C1=CCCCC1=O	.	15.4%[11.4 µM]	2.1%[11.5 µM]	.	.
COc1cccc(-c2c(NC(=O)c3ccco3)n(-c3ccc(C)cc3)nc(C)c2=O)c1	i	1.1%	-1.5%	i	2.75e-08
CCOC(=O)C(NC(=O)CC)(Nc1ccc(S(=O)(=O)Nc2onc(C)c2C)cc1)C(F)(F)F (configuration not stated)	i	5.1%	-0.3%	i	3.67e-08
Cc1ccc2c(COC(=O)C3=COCCO3)cc(=O)oc2c1	i	-1.8%	-1.7%	i	1e-09
O=C(CSc1nc2ccccc2o1)c1cc2ccccc2oc1=O	i	.	17.6%	i	1.35e-08
Cc1ccc(OCc2nnc(SCC(=O)N3CCOCC3)n2C)cc1	i	-12.0%	0.4%	i	1e-09
Cn1cc[nH]c1=S	i	-4.4%	0.6%	i	1.8e-08

The final 2 records of the section before come first, to join the parts.
SMILES	Resorufin autofl	TSHR ag	AID923	A488 autofl	A647 autofl
Cc1ccc(OCc2nnc(SCC(=O)N3CCOCC3)n2C)cc1	i	-12.0%	0.4%	i	1e-09
Cn1cc[nH]c1=S	i	-4.4%	0.6%	i	1.8e-08
CCCCC(=O)c1c(C)cc(C)[nH]c1=O	i	.	.	i	1e-09
O=C(O)c1cc2nc3c(c(C(F)(F)F)n2n1)CCc1ccccc1-3	.	6.7%[11.4 µM]	11.5%	.	.
Cc1ccc(-c2nn(CC(=O)NCc3ccco3)c(=O)c3ccccc23)cc1	i	?	-0.8%	i	3.03e-08
O=C(CSc1ccc(Cl)cc1)OCc1nnc(-c2ccccc2)o1	i	9.2%	0.7%	i	3.07e-08
CCN1CCN(C(=O)C2c3cc(OC)c(OC)cc3C(=O)N(C)C2c2ccc(SC)cc2)CC1 (configuration not stated)	i	3.8%	0.5%	i	4.6e-09
N#CCCN(C(=O)CSc1ccc2c(c1)OCCO2)c1ccccc1	i	7.2%	-2.0%	i	1.57e-08
NCS(=O)(=O)O	i	-3.7%[11.4 µM]	0.3%[11.5 µM]	i	3.61e-08
CCCC(=O)Nc1nnc(-c2ccco2)s1	i	-6.8%	-1.5%	i	1e-09
CCC1Sc2ccccc2N(CC(=O)NCc2ccc3c(c2)OCO3)C1=O (configuration not stated)	i	.	0.9%	i	1.56e-08
Cc1cc(-c2cccs2)n[nH]1	.	1.7%	-0.3%	.	.
CCN1CCN(c2c(Cl)cccc2NC(=O)c2ccc3c(c2)OCCO3)CC1	i	2.7%[11.4 µM]	-0.5%	i	5.1e-09
CC1CC(C)CN(C(=O)C2CCCN(S(=O)(=O)c3cccc4nonc34)C2)C1 (configuration not stated)	i	-6.2%	2.9%	i	2.2e-08
CN(c1ccccc1C(=O)Nc1ccccc1C(=O)NCc1ccco1)S(C)(=O)=O	i	9.1%	-0.8%	i	6.1e-09
O=C(CSc1ncc(C(F)(F)F)cc1Cl)N1CCN(S(=O)(=O)c2ccccc2)CC1	i	15.5%	0.9%	i	1e-09
Cc1noc(C)c1S(=O)(=O)N(CC(=O)Nc1ccc2c(c1)OCO2)c1ccc(C(C)C)cc1	.	12.2%	1.6%	.	.
COc1ccc(CCNC(=O)CN(c2ccc(C)cc2)S(=O)(=O)c2c(C)noc2C)cc1OC	i	3.2%	1.6%	i	1.88e-08
CCNC(=O)C1CC(=O)N(c2ccc(Br)cc2)C1 (configuration not stated)	i	-3.9%	-1.5%	i	7.8e-09
CCCOc1ccc(S(=O)(=O)NCCCN2CCOCC2)c2ccccc12	i	?	-1.3%	i	2.4e-09
Cc1cccc(C)c1OCC(O)CNS(=O)(=O)c1ccccc1C(=O)N1CCCCC1 (configuration not stated)	i	.	.	i	1e-09
COc1ccc(Oc2ncc3ncc(=O)n(C)c3n2)cc1	i	-0.2%	1.7%	i	1.8e-09
CN(Cc1ccccc1)S(=O)(=O)c1ccc(C(=O)Nc2nnc(C3CC3)o2)cc1	i	-3.0%	1.2%	i	1e-09
Cc1ccc(-c2nc3cccnc3s2)cc1NC(=O)c1ccco1	i	.	-1.9%	i	2.43e-08
O/N=C1\CC(O)Cc2nonc21 (configuration not stated)	i	?	0.3%	i	2.31e-08
COc1ccc(S(=O)(=O)Nc2ccc3c(c2)OCO3)cc1Cl	i	-2.3%	0.4%	i	4.9e-09
CC(C)(C)c1csc(NC(=O)Cn2c(=O)oc3ccccc32)n1	i	-1.0%	-1.5%	i	1e-09
CCCN1CCN(c2ncnc3c2nnn3Cc2ccccc2)CC1	i	13.6%	2.4%	i	1e-09
CN(C)/C=C1/Sc2ccccc2C1=O	.	1.8%	11.5%	.	.
O=C(c1ccccc1)c1ccc2nc(N3CCN(C(=O)c4ccco4)CC3)c3nncn3c2c1	.	0.1%	4.9%	.	.
CCOC(=O)C1CCCN(C(=O)c2cc(-c3ccc(C)cc3)on2)C1 (configuration not stated)	i	19.9%	-0.2%	i	1e-09
COc1ccccc1CNc1ccc(N2CCOCC2)c(C(=O)O)c1	i	-8.5%	1.8%	i	6e-09

As entered above.
Result of CN(Cc1ccccc1)S(=O)(=O)c1ccc(C(=O)Nc2nnc(C3CC3)o2)cc1 in TSHR ag: -3.0%
Result of CCOC(=O)C1CCCN(C(=O)c2cc(-c3ccc(C)cc3)on2)C1 (configuration not stated) in AID923: -0.2%
Result of COc1ccc(S(=O)(=O)Nc2ccc3c(c2)OCO3)cc1Cl in AID923: 0.4%
Result of CC(C)(C)c1csc(NC(=O)Cn2c(=O)oc3ccccc32)n1 in AID923: -1.5%
Result of O/N=C1\CC(O)Cc2nonc21 (configuration not stated) in AID923: 0.3%

(further entries)
SMILES	Resorufin autofl	TSHR ag	AID923	A488 autofl	A647 autofl
CC(C)(C)n1nnnc1C(c1cccs1)N(Cc1ccccc1)Cc1ccco1 (configuration not stated)	i	?	-0.5%	i	2.59e-08
N#Cc1c(-c2ccco2)c2c([nH]c1=S)CCCC2	.	3.5%	10.8%	.	.
CCOC(=O)c1ccc(NC(=O)CC2COc3ccccc3O2)cc1 (configuration not stated)	i	15.1%	2.0%	i	4.86e-08
Cc1cc(C)cc(NC2=NCC(=O)N2Cc2ccccc2)c1	i	5.7%	0.5%	i	7.9e-09
Cc1cc2nn(-c3cccc4ccccc34)nc2cc1N	i	-6.3%	16.5%	i	1e-09
CCN(CC)C(=O)C1CCC(CNS(=O)(=O)c2cccc3cccnc23)CC1 (configuration not stated)	.	-5.2%	-0.7%	.	.
O=C(c1cc(C(F)(F)F)cc(C(F)(F)F)c1)N1CCC2(CCCN(Cc3ccncc3)C2)CC1	i	2.9%	-0.2%	i	2.82e-08
Cc1nc(SCC(=O)O)c2oc3ccccc3c2n1	i	-0.2%	-0.8%	i	8.7e-09
CCCn1c(C(C)NC(=O)c2ccccc2)nc2ccccc21 (configuration not stated)	i	1.3%[11.4 µM]	-1.2%	i	1e-09
CCCCn1c(O)c(C=NCCCN(C)C)c(=O)[nH]c1=O	i	.	.	i	3.6e-09
O=C(Nc1ccc2c(c1)nc1n2CCN(C2CCCCC2)C1)c1ccco1	i	-9.5%	13.4%	i	2.78e-08
O=C(CCn1c(=O)sc2ccccc21)Nc1cccnc1	i	-0.9%	-0.7%	i	2.34e-08
CCCCSc1nc(N)c(C#N)c(-c2cccs2)c1C#N	i	.	.	i	1e-09
Nc1sccc1C(=O)c1ccccc1	i	-4.0%	1.1%	i	3e-09
Cc1ccc(-n2ncc3c(=O)n(-c4ccc(C)c(C)c4)c(C)nc32)cc1	i	?	0.0%	i	2.7e-09
COc1cc([C@H]2[C@@H]3CCCC[C@]3(O)CCN2CC(=O)Nc2ccc(C)cc2C)ccc1O	i	26.6%	1.4%	i	2.7e-09
Cc1cc(C)n(C(=O)CCNC(=O)c2ccccc2Br)n1	i	6.6%	1.0%	i	4.17e-08
O=c1c2oc3ccccc3c2ncn1Cc1ccccc1F	i	14.3%	0.5%	i	2.9e-09
COc1ccc(/C=N/n2cnnc2SCCO)cc1OC	.	-0.4%	1.8%	.	.
O=C(Nc1ccccc1)c1ccc(NCc2ccco2)c(S(=O)(=O)N2CCOCC2)c1	i	22.1%	4.7%	i	1e-09

2 entries from above, with values under each structure:
Values run as follows: Resorufin autofl, TSHR ag, AID923, A488 autofl, A647 autofl
> CCCCSc1nc(N)c(C#N)c(-c2cccs2)c1C#N
→ i, ., ., i, 1e-09
> Cc1cc(C)n(C(=O)CCNC(=O)c2ccccc2Br)n1
→ i, 6.6%, 1.0%, i, 4.17e-08

Going on with the list:
SMILES	Resorufin autofl	TSHR ag	AID923	A488 autofl	A647 autofl
CC(=O)C[C@H](c1ccc([N+](=O)[O-])cc1)c1c(O)c2ccccc2oc1=O	i	-6.9%[25.6 µM]	-0.9%[25.7 µM]	i	4.58e-08
C=C(C)c1cccc(C(C)(C)NC(=O)NCC2COCCO2)c1 (configuration not stated)	.	8.4%	0.9%	.	.
O=C1c2ccccc2NC(c2ccc3c(c2)OCO3)N1O (configuration not stated)	i	-0.6%	0.0%	i	6e-09
COCCn1c(SCC(=O)Nc2ncc(Cl)c(C)c2Cl)nc2ccccc21	i	25.2%	-0.6%	i	9.2e-09
O=C(NCCCn1ccnc1)C(F)(F)C(F)(F)C(=O)NCCCn1ccnc1	i	-0.4%	2.0%	i	1e-09
CCOC(=O)N1CCN(C(=O)c2ccc3nc(N4CCC(C)CC4)sc3c2)CC1	i	8.7%	-0.5%	i	2.4e-09
